High-throughput results deposited in PubChem BioAssay by Broad Institute.
Hedgehog – Drosophila hedgehog isoform A inhibitors, primary screen, biochemical, plate reader, single concentration (AID 588832). Biochemical plate reader assay, Hedgehog inhibition; hits give high values. inhibition, % at 30.3 µM. 8,000 tested, under 10 active; in the data active = inhibition from about 57%;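 also: 0% = neutral control wells and 100% = positive control wells; cholesterol-driven self-cleavage of fly hedgehog protein by fluorescence polarization; read one hour after cholesterol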
Starred values were filed as active, the others as inactive. Some of the compounds tested (hit frequency here may not be typical).

Hedgehog	Molecule
15	COc1ccc(C2CC(c3ccc(F)cc3)Nc3nc(N)nn32)cc1 (configuration not stated)
7	CC(C)C[C@H](NC(=O)[C@@H](Cc1ccccc1)n1c(=O)[nH]c2ccccc2c1=O)C(=O)N[C@@H](Cc1ccccc1)C(=O)O
4	CCC(=O)N1CCCc2cc(S(=O)(=O)N3CCN(c4ccccc4F)CC3)ccc21
8	CC(C)CC(NC(=O)C1CCC(C)CC1)C(=O)N1CCN(c2ccccn2)CC1 (configuration not stated)
21	CCOC(=O)c1[nH]c2c(c1-c1ccccc1)C(=O)CC(c1ccc(Cl)cc1)C2 (configuration not stated)
7	CCC(C)(C)NC(=O)c1cc(S(=O)(=O)N2CCc3ccccc32)cn1C
5	Cn1c(=O)oc2cc(S(=O)(=O)N3CCCc4ccccc43)ccc21
2	CSCC[C@H](NC(=O)[C@@H]1CSC2c3ccccc3C(=O)N21)C(=O)N1CCC[C@H]1CO (some centres not stated)
4	COc1cccc(CNC(=O)c2ccc3c(c2)N(C)CCS3)c1OC
5	COc1cccc(-n2c(SCC(N)=O)nnc2-c2c[nH]c3ccccc23)c1
9	Cc1cc(S(=O)(=O)N2CCN(Cc3ccc4c(c3)OCO4)CC2)cc(C)c1N1CCCC1=O
10	COC(=O)CSc1nc(N)c(NC(=O)c2ccc(OC)c(OC)c2)c(=O)[nH]1
0	O=C1c2ccccc2C(Nc2cccnc2)N1Cc1ccccc1 (configuration not stated)
8	COc1ccc2c(c1)C(SCC(=O)NCc1ccccc1)CC(C)(C)O2 (configuration not stated)
25	Cn1c(Cn2c(=O)sc3ccccc32)nnc1SCC(N)=O
10	CC1C(=O)Nc2ccc(S(=O)(=O)Nc3ccccc3Br)cc2NC1=O (configuration not stated)
3	Cc1cc(OC(C)C(=O)NCC2CCC(C(=O)O)CC2)c2c(C)c(C)c(=O)oc2c1 (configuration not stated)
11	CCOCC(=O)Nc1cccc(-c2nc3cccnc3s2)c1C
20	COc1ccccc1Cc1nc(-c2ccc(Br)o2)no1
14	C=CCc1ccc(OC(=O)c2ccccc2)c(OC)c1
7	COC(=O)c1ccc2ccccc2n1
-1	CNC(=O)c1c(NC(=O)c2nc3ccccc3s2)sc2c1CCC2
0	COc1cc(/C=C2\Oc3cc(O)ccc3C2=O)ccc1O
11	CCC(C)NC(=O)CN1C(=O)CC(C)(C)S(=O)(=O)c2ccccc21 (configuration not stated)
5	O=C(c1ccc2c(=O)n3c(nc2c1)CCCCC3)N1CCN(c2ccccc2F)CC1

Other records follow.
Hedgehog	Molecule
-7	CC1CCc2nn(CC(=O)NCc3ccco3)cc2C1 (configuration not stated)
5	Cc1nc2ccccc2c2oc(C(=O)NCc3ccc4c(c3)OCO4)cc12
-5	COc1cccc(NS(=O)(=O)c2cc3c(cc2C)N(C)CCO3)c1
4	COCC(=O)NCCSc1c(C)[nH]c2ccccc12
7	Cc1ccc(-n2c(=O)cc(N3CC(C)OC(C)C3)[nH]c2=O)cc1 (configuration not stated)
7	CC1CC(=O)c2c(cc3c(-c4c(O)cc(O)c5c(O)c6c(cc45)OC(C)CC6=O)c(O)cc(O)c3c2O)O1 (configuration not stated)
4	O=C(NCCc1csc(-c2ccccc2)n1)c1ccc(Br)o1
21	CCN(C(=O)c1cc2c(s1)-c1ccccc1OC2)c1cc(OC)ccc1OC
4	COc1ccc(NS(=O)(=O)c2cc3c(cc2C)N(C(C)=O)CCO3)cc1OC
5	CCC(=O)N1c2ccccc2-c2nnc(SC)nc2OC1c1ccc(N(C)C)cc1 (configuration not stated)
13	CCc1cc2c(cc3c(=O)n(CC(=O)NCCCN4CC(C)CC(C)C4)ncn32)s1 (configuration not stated)
7	Cc1cccc(OCC(=O)N(Cc2ccco2)C2CCS(=O)(=O)C2)c1 (configuration not stated)
7	CCC1CCCCN1CCCNC(=O)CCC(=O)N1CCOc2ccccc21 (configuration not stated)
4	COc1cc2cc(Oc3ccc4ccc(=O)oc4c3)c(=O)oc2cc1O
9	Nc1cccc(O)c1
25	Cn1cccc1Cc1nnc(SCC(=O)Nc2cccc(Cl)c2)n1-c1ccc(F)cc1
2	Cn1c(=O)c(=O)n(C)c2cc(S(=O)(=O)CCC(=O)N3CCCCC3)ccc21
17	COc1ccc(C2C(C(=O)Nc3ccc(F)cc3)=C(C)Nc3nc(CCCO)nn32)cc1 (configuration not stated)
7	NC(=O)C1CCN(C(=O)COc2ccc3c4c(c(=O)oc3c2)CCCC4)CC1
3	Cc1cc(C)cc(N2Cc3ccccc3C2)c1
4	CC(=O)NCc1nc2ccccc2n1C(C)C
20	CC1CCCN(S(=O)(=O)c2ccc3c(c2)C(C)(C)C(=O)N3C)C1 (configuration not stated)
3	COc1ccc(C(=O)/C=C/c2ccc(O)cc2)c(O)c1C/C=C(\C)CCC=C(C)C
5	CC(C)=CCc1c(O)cc(O)c2c1OC(c1ccc(O)cc1)CC2=O (configuration not stated)
17	CCC(=O)N1c2ccccc2-c2nnc(SC)nc2OC1c1ccc(OC)c(OC)c1 (configuration not stated)

(list continues)
Hedgehog	Molecule
5	CCCCCCc1c(C)c2ccc(OCC(=O)N3CCC[C@H]3C(=O)O)c(C)c2oc1=O
17	O=C(NCCN1C(=O)C2C3C=CC(C3)C2C1=O)Nc1ccccc1 (configuration not stated)
5	CC1Cc2ccccc2N1C(=O)CCn1c(=O)sc2ccccc21 (configuration not stated)
10	CN1CCc2c(c3ccccc3n2Cc2ccccc2)C1
4	CCOC(=O)c1c(C)c(-c2ccccc2)n(CC(=O)NCCC(C)C)c1C
0	CCC(C)[C@H](NC(=O)[C@@H]1Cc2c([nH]c3ccccc23)C2c3ccccc3C(=O)N21)C(=O)N1CCC[C@@H]1C(=O)O (some centres not stated)
5	CCCc1cc(=O)oc2cc(OCC(=O)NCC3CCC(C(=O)O)CC3)ccc12 (configuration not stated)
5	CCOC(=O)c1c(NC(=O)Cc2ccccc2)sc2c1CCN(C)C2
2	COC(=O)c1cc(S(=O)(=O)N2CCN(c3cc(C)ccc3C)CC2)c[nH]1
2	CCCCn1c(CCCNC(=O)CC)nc2ccccc21
9	COc1ccc(-c2nc(C(=O)NCC3CCCO3)cc3c2[nH]c2ccccc23)cc1 (configuration not stated)
6	NC(=O)C1(N2CCCCC2)CCN(C(=O)c2cccs2)CC1
8	CC(C)Oc1ccc(CNC(=O)CCC(=O)N2CCSc3ccccc32)cc1
10	Cc1cc(Nc2ccccc2F)n2nc(C)nc2n1
3	Cc1ccc(-c2nc(CS(=O)CC(=O)NCc3ccccn3)c(C)o2)cc1 (configuration not stated)
12	NC(=O)CN1CCN(C(=O)Nc2ccccc2)CC1
4	Cc1cccc(C(=O)Nc2ccc(C(=O)N/N=C/c3ccco3)cc2)c1
2	CC(C)c1ccc(NC(=O)[C@@H]2CCC(=O)N2C2OC(=O)c3ccccc32)cc1 (some centres not stated)
5	COC(=O)c1cc(=O)n(CCc2ccccc2)c(=Nc2ccc(F)cc2)s1
10	CCOc1cc(-c2cc(N)n[nH]2)cc(OCC)c1OCC
0	O=C(NCC1CCCO1)c1cc2c([nH]c3ccccc32)c(-c2cccc(Cl)c2)n1 (configuration not stated)
8	COc1ccc(-n2c(Cc3cccn3C)nnc2SCC(=O)NC2CCCCC2)cc1
20	COc1ccc(C)cc1NC(=O)C1CCCN(S(=O)(=O)c2cccc3cccnc23)C1 (configuration not stated)
7	Cc1ccc(CNC(=O)CS(=O)(=O)Cc2nc(-c3ccccc3F)oc2C)cc1
12	Cc1ccc(-c2nc3cnccn3c2Nc2ccc3c(c2)OCO3)o1

Molecules listed so far that have a COOH group:
Hedgehog	Molecule
7	CC(C)C[C@H](NC(=O)[C@@H](Cc1ccccc1)n1c(=O)[nH]c2ccccc2c1=O)C(=O)N[C@@H](Cc1ccccc1)C(=O)O
3	Cc1cc(OC(C)C(=O)NCC2CCC(C(=O)O)CC2)c2c(C)c(C)c(=O)oc2c1 (configuration not stated)
5	CCCCCCc1c(C)c2ccc(OCC(=O)N3CCC[C@H]3C(=O)O)c(C)c2oc1=O
0	CCC(C)[C@H](NC(=O)[C@@H]1Cc2c([nH]c3ccccc23)C2c3ccccc3C(=O)N21)C(=O)N1CCC[C@@H]1C(=O)O (some centres not stated)
5	CCCc1cc(=O)oc2cc(OCC(=O)NCC3CCC(C(=O)O)CC3)ccc12 (configuration not stated)

Filtered by structure: the entries above with bromine (three)
Hedgehog	Molecule
10	CC1C(=O)Nc2ccc(S(=O)(=O)Nc3ccccc3Br)cc2NC1=O (configuration not stated)
20	COc1ccccc1Cc1nc(-c2ccc(Br)o2)no1
4	O=C(NCCc1csc(-c2ccccc2)n1)c1ccc(Br)o1

Ordered by SMILES length (falling): some entries from above
Hedgehog	Molecule
20	COc1ccc(C)cc1NC(=O)C1CCCN(S(=O)(=O)c2cccc3cccnc23)C1 (configuration not stated)
2	COC(=O)c1cc(S(=O)(=O)N2CCN(c3cc(C)ccc3C)CC2)c[nH]1
5	CCCc1cc(=O)oc2cc(OCC(=O)NCC3CCC(C(=O)O)CC3)ccc12 (configuration not stated)
4	Cc1cccc(C(=O)Nc2ccc(C(=O)N/N=C/c3ccco3)cc2)c1
12	NC(=O)CN1CCN(C(=O)Nc2ccccc2)CC1

Additional compounds:
Hedgehog	Molecule
4	COc1ccc(-c2cc3ccccc3n2CC(O)CN2CCC(C)CC2)cc1 (configuration not stated)
5	O=C(NCc1ccc(F)cc1)c1cccc(NC2=NC3CS(=O)(=O)CC3S2)c1 (configuration not stated)
11	O=C(c1ccc(NC2=NC3CS(=O)(=O)CC3S2)cc1)N1CCN(c2ccccc2F)CC1 (configuration not stated)
7	CCCCSc1nc2c(c(=O)n1CC)SC(C)C2 (configuration not stated)
8	CC1CC(C)CN(C(=O)CSc2nnc(-c3ccc(Cl)s3)o2)C1 (configuration not stated)
9	CCC(C)CCCCCCCCCCC(=O)O (configuration not stated)
5	O=C(NCc1cccs1)c1cc(C2CC2)on1
9	COC(=O)c1cc(=O)n(CCc2ccc(OC)cc2)c(=Nc2ccc(F)c(Cl)c2)s1
7	COc1cc(NC(=O)c2cccc(NC3=NC4CS(=O)(=O)CC4S3)c2)cc(OC)c1OC (configuration not stated)
7	COc1ccc(N2CCN(S(=O)(=O)c3cc4c(cc3C)N(C(C)=O)CCO4)CC2)cc1
7	CC1C(=O)Nc2ccc(S(=O)(=O)N3CCN(c4cccc(Cl)c4)CC3)cc2NC1=O (configuration not stated)
15	Oc1ccccc1-c1nnc(COc2ccc(Cl)cc2Cl)o1
4	Cc1c(C)c2c(OCC(=O)Nc3cccnc3)cc3c(c2oc1=O)CCC(C)(C)O3
10	COc1ccc(C2=NS(=O)(=O)N(C)C(C(=O)NCc3ccc4c(c3)OCO4)=C2)cc1
5	C[C@H](CCC(=O)O)[C@H]1CC[C@H]2[C@@H]3CC[C@@H]4C[C@H](O)CC[C@]4(C)[C@H]3CC[C@]12C
5	O=C(Nc1ccccc1)Nc1ccccc1
9	CCCCCCCCCCCC(=O)c1c(O)cccc1O
5	Cc1ccc(-n2nnc3c(=O)n(Cc4cccc(C)c4)cnc32)cc1
13	CN(Cc1ccccc1)c1nnc(N)s1
5	Cn1c(=O)oc2cc(S(=O)(=O)NC3CCCc4ccccc43)ccc21 (configuration not stated)
-1	O=C(c1cc(-c2ccc(O)cc2)on1)N1CCCc2ccccc21
5	Cc1ccc(C)c(N2CCN(S(=O)(=O)c3ccc4c(c3)NC(=O)CC(=O)N4)CC2)c1
10	Cc1ccc2oc(=O)c3cnn(CC(=O)NCCN4CCOCC4)c3c2c1
5	O=S(=O)(Cc1cccc(F)c1)c1c[nH]c2ccccc12
3	COc1ccc(C2=NS(=O)(=O)N(C)C(C(=O)NC(C)c3ccccc3)=C2)cc1 (configuration not stated)

(listing goes on)
Hedgehog	Molecule
9	CC(C)[C@H](NC(=O)N1c2ccccc2NC(=O)[C@@H]1C(C)C)C(=O)N[C@@H](C(=O)O)c1ccccc1
17	N#CCCN1CCN(S(=O)(=O)c2ccc(S(=O)(=O)N3CCCC3)cc2)CC1
7	COc1ccc(OC)c2sc(NC(=O)CCSc3ccccc3)nc12
3	C=C(C(=O)O)C(CCCCCC)C(=O)O (configuration not stated)
2	O=C(NCc1ccc(F)cc1)C(=O)NCC1OCCN1S(=O)(=O)c1cccs1 (configuration not stated)
10	COC(=O)[C@@H](Cc1ccccc1)NC(=O)[C@H]1CCC(=O)N1C(=O)OCc1ccccc1
4	Cc1cc2[nH]c(=O)c(=O)[nH]c2cc1S(=O)(=O)NC1CCCCC1C (configuration not stated)
13	CCc1cccc(NC(=O)CCS(=O)(=O)c2cc3c(cc2C)NC(=O)CO3)c1
15	Cc1ccccc1-c1nc(CS(=O)(=O)CC(=O)NCCCN2CCCC2=O)c(C)o1
21	Cn1c(C(=O)NCCN2CCc3ccccc3C2)cc2c(=O)n(C)c3ccccc3c21
5	Cn1c(=O)c2c(nc(SCCN3CCOCC3)n2Cc2ccc(Cl)cc2)n(C)c1=O
7	Cc1ccc2oc(=O)c3cnn(CC(=O)NCCN(C)C)c3c2c1
5	O=C(CCC(=O)N1CCOc2ccccc21)NCCc1ccccc1
5	Cn1c(C(=O)N2CCC(C(=O)N3CCOCC3)CC2)cc2sccc21
4	CCN1CCc2c(sc(NC(=O)Cc3ccccc3)c2C(=O)OC)C1
9	COc1ccc(C2c3c(oc4ccccc4c3=O)C(=O)N2c2ccc(C)cn2)cc1OC (configuration not stated)
5	COc1ccc2c(c1)O[C@H]1c3ccc(O)cc3OC[C@@H]21
